Bioassay records (PubChem)
Calb FLC: affects C. albicans growth with fluconazole; C. albicans CaCi-2 (fluconazole-resistant clinical isolate) + fluconazole, Alamar Blue growth, 48 h; growth inhibition, % (concentration not given with the values); 0.57% of 300,000 active; AID 1979;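 active = most replicates above 75%; inconclusive = exactly half above 75%; inactive = most below 75%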;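 note: all wells also contain fluconazole at 8 µg/ml as a sub-toxic cotreatment; 0% = median of DMSO wells and 100% = median of geldanamycin control wells; wells of about 8 µL received 7.5 nL stock; the first replicate is given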
RanGTP-Imp inh: disruptors of Ran-importin-beta complex formation – biochemical, FRET, CFP-Ran, YFP-importin-beta, homogeneous, primary screen; inhibition, % (test concentration not listed); 1.1% of 300,000 active; cell-free CFP-Ran/YFP-importin-beta FRET ratio;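 active = most replicates above 15%; inconclusive = exactly half above 15%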;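 note: 0% = DMSO wells and 100% = Ran loaded with GDP instead of GTP; wells of about 40 µL received 100 nL stock; the first replicate is given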
MLL AF4-AF9 inh: blocks AF4 peptide binding to human AF9 | 0.47% of 350,000 active | P42568 | inhibition, % at 10 µM | AlphaScreen, biotin-AF4 peptide binding to FLAG-AF9;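 active = every replicate reaching a set inhibition limit, whatever the replicate mean, cut at about 25% in these data; inconclusive = mean inhibition reaches that limit but some replicates miss it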;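 note: 0% = plate neutral control median and 100% = total signal loss; the record names both 10 and 1 µM as test concentration; the first replicate is given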
Target sequence (P42568 whole entry, looked up): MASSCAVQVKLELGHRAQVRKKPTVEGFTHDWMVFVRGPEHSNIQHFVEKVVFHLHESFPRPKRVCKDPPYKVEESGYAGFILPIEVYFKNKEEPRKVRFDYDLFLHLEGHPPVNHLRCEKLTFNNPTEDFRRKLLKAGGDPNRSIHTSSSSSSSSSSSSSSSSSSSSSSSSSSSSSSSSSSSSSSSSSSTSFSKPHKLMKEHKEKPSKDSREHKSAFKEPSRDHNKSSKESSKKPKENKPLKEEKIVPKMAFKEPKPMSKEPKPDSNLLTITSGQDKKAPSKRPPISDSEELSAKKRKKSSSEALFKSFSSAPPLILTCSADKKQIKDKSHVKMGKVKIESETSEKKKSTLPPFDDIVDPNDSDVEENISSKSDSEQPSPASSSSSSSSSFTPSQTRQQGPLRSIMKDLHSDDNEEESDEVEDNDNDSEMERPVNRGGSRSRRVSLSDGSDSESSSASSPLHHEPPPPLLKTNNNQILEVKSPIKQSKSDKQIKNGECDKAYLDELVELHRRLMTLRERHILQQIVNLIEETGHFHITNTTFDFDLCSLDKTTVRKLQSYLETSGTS
Bfl-1 A1 inh: inhibitors of the anti-apoptotic protein A1, read as caspase activation. caspase activation, % (no concentration beside the values). AID 2462. MEF A1-2A-BIM cells, Caspase-Glo 3/7 luminescence, 3 h; percent of clofoctol response, vehicle zero. 0.066% of 330,000 active;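 active = over half of replicate activation scores above 10%, or exactly half above 10 with the replicate mean above 10; inconclusive = replicate mean below 10 yet half the replicates above 10; inactive = over half of replicates below 10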;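 note: wells of about 30 µL received 50 nL stock; many hits fall short of the cut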
rRNA inh HTS: inhibits bacterial ribosomal RNA function over humanized ribosomes; 1.6% of 350,000 active; GFP signal change (wild-type ribosome), % (test concentration not listed); AID 720706; E. coli WT GFP vs humanized-ribosome RFP mutants, fluorescence, 24 h; stronger effect = lower value; DMSO median 0, no signal -100;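 active = significant combined selectivity score with lowered wild-type GFP, culture density cut under 30%, mutant RFP and density less affected; inactive = any of these conditions unmet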; note: one replicate is shown; some compounds called inactive have numbers as strong as hits
Vif TR-FRET: inhibitors of Vif binding to APOBEC3G peptide, primary screen, biochemical, TR-FRET, GST-Vif 1-94, biotin-A3G peptide, dose response retest (AID 1117319); TR-FRET GST-Vif / biotin-A3G peptide binding; higher % means a stronger effect; test concentration not given here; strong numbers were not always called active; one-dose inhibition, %; IC50 in µM for titrated hits; 0.57% of 260,000 active;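 active = above the screen mean plus three standard deviations and confirmed in dose response; inconclusive = results disagree or hit not tested in dose response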;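 note: Vif residues 1-94 fused to GST binding biotinylated APOBEC3G peptide 110-148; 0% = full assay without inhibitor and 100% = GST in place of GST-Vif; retest series ran down from 100 µM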
T cruzi inh: T. cruzi replication inhibition | T. cruzi beta-gal in NIH3T3, luminescence, 90 h | inhibition, % (concentration not given with the values) | 1.4% of 300,000 active;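 active = mean inhibition across valid replicates above about 55%, limit read from the data; inconclusive = mean below that limit but half or more replicates reach it; inactive = mean below it, under half of replicates reach it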;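 note: signal also drops with host cell toxicity which is not excluded here; 0% = plate median of DMSO wells and 100% = zero luminescence signal; higher percent means less beta-gal luminescence so fewer parasites; stock transfer was 50 nL into about 50 µL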
Beta apoptosis: beta cell apoptosis inhibition; AID 435005; 0.8% of 300,000 active; INS-1E cytokine-induced death, ATP luminescence, 48 h; percent of positive-control rescue, neutral wells zero; protection from apoptosis, % (test concentration not listed);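 active = all replicates at 75% or more, or half of them and the mean; inconclusive = half reach 75% but not the mean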;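 note: 0% = cytokine-treated negative control wells and 100% = positive control rescue; higher means more ATP so stronger rescue from cytokine killing; wells of about 40 µL received 100 nL stock; the first replicate is given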
rRNA inh HTS OD600: further read-out of rRNA inh HTS, marked with its call; OD600 change, %; measured here: OD600 growth;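 optical density of the mix in the first replicate; 0 = DMSO median and -100 = no signal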
rRNA inh HTS RFP: further read-out of rRNA inh HTS, marked with its call; RFP signal change, %; measured here: RFP humanized mutant strains;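 first replicate; 0 = DMSO median and -100 = no signal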
The depositor's hits bear a star; ? = inconclusive; . = not tested or not shown.

SMILES | Calb FLC | RanGTP-Imp inh | MLL AF4-AF9 inh | Bfl-1 A1 inh | rRNA inh HTS | rRNA inh HTS OD600 | rRNA inh HTS RFP | Vif TR-FRET | T cruzi inh | Beta apoptosis
CC(C)CNC(=O)C1CCN(Cc2ccc(OCc3ccccc3)cc2)CC1 | -3 | 0.7 | . | -0.7 | . | . | . | . | 9 | -11
Cc1ccc(S(=O)(=O)N2CCCCC2)cc1C(=O)N(CCc1ccccc1)Cc1ccccc1 | 5 | 4.2 | -0.3 | -1.2 | 13 | 11 | 1.5 | -2% | 51 | .
CCOc1ccc(-c2cn3ccccc3n2)cc1[N+](=O)[O-] | 24 | 1.1 | -0.1 | -3.5 | 6 | 13 | 1.1 | . | -6 | 4
Cc1cc(=O)n2nc(N3CCC(C(=O)Nc4cccc(Cl)c4C)CC3)sc2n1 | 11 | ? | 0.0 | -0.3 | 3 | 3 | -2.0 | . | -7 | 1
O=C(CN(C(=O)CNC(=O)c1cccs1)c1ccccc1F)NC1CCCC1 | 30 | -1.3 | 1.5 | 0.4 | 3 | -4 | -2.4 | . | 2 | -2
COC(=O)N1CCCc2cc(C)ccc21 | 2 | -3.4 | -0.7 | 0.8 | 4 | -1 | -4.9 | -9% | 0 | -9
COc1cccc(C2CC(c3ccccc3)Nc3ncnn32)c1 (stereo not given) | -17 | 2.2 | . | 1.5 | . | . | . | 5% | -14 | -1
O=C(COC(=O)COc1ccccc1F)Nc1ccc(Cl)cn1 | 5 | -0.6 | -6.5 | 0.3 | 11 | 3 | -1.8 | -20% | -4 | -5
O=C(CSc1nnc(-c2ccc(F)cc2)o1)N1CCCC1 | -11 | 0.7 | 0.4 | -0.7 | 7 | 4 | -2.6 | . | -15 | -1
Cc1ccc(-c2nc(Nc3cccc(O)c3)c3ccccc3n2)cc1 | 0 | -0.7 | -4.4 | 0.7 | -59 | -78 | -16 | . | 1 | 0
CN(C(=O)CSc1nnc(CN2CCCC2)n1Cc1ccccc1)c1ccccc1 | -7 | 1.2 | -14 | -1.0 | -5 | -2 | 0.3 | 4% | 1 | -3
COc1ccc(C(C)=O)cc1COC(=O)CNC(=O)c1ccc(Cl)cc1 | -7 | 8.2 | 0.0 | 1.2 | 3 | -4 | 3.9 | -13% | -14 | -1
COCCCNc1nc2c(-c3cccc(C)c3)nnn2c2ccccc12 | 0 | ? | -3.2 | -0.4 | 5 | 5 | 0.3 | . | 17 | -1
CCN(CC)S(=O)(=O)c1ccc(/C=C/C(=O)OCC(=O)NC(=O)C2COc3ccccc3O2)cc1 (stereo not given) | . | . | -1.4 | 1.5 | 15 | 11 | 3.7 | 5% | . | -9
CCCN(CC(=O)Nc1cccc(S(N)(=O)=O)c1)CC(=O)Nc1ccc(F)c(F)c1F | -2 | -1.0 | 0.8 | ? | -2 | -3 | -4.5 | 9% | 0 | -9
CN(C)C(CNC(=O)c1coc2ccccc2c1=O)c1ccccc1 (stereo not given) | -6 | 4.3 | -2.2 | 1.0 | 6 | 11 | -1.5 | -6% | -20 | .
Cc1cc([N+](=O)[O-])nn1CC(=O)N(C)C1CCCCC1 | 9 | 1.0 | 0.2 | 0.8 | -1 | 7 | -2.5 | . | -10 | 0
CCCCN(CCCC)c1nc(OC)nc(-n2nnc(C(C)=O)c2C)n1 | -2 | 1.5 | . | 0.2 | . | . | . | -1% | 26 | 12
CC(=O)c1ccc(N=Cc2c(O)n(-c3cc(Cl)ccc3N3CCOCC3)c(=O)c3ccccc23)cc1 | -2 | ? | . | 0.2 | . | . | . | 4% | 8 | 9
NC(=O)CSc1nnc2ccc(-c3ccc(Cl)cc3)nn12 | -1 | -0.5 | -8.8 | 0.8 | 16 | 12 | 1.0 | 0% | -16 | -1

Brought forward from above: 2 entries, then new ones.
SMILES | Calb FLC | RanGTP-Imp inh | MLL AF4-AF9 inh | Bfl-1 A1 inh | rRNA inh HTS | rRNA inh HTS OD600 | rRNA inh HTS RFP | Vif TR-FRET | T cruzi inh | Beta apoptosis
CC(=O)c1ccc(N=Cc2c(O)n(-c3cc(Cl)ccc3N3CCOCC3)c(=O)c3ccccc23)cc1 | -2 | ? | . | 0.2 | . | . | . | 4% | 8 | 9
NC(=O)CSc1nnc2ccc(-c3ccc(Cl)cc3)nn12 | -1 | -0.5 | -8.8 | 0.8 | 16 | 12 | 1.0 | 0% | -16 | -1
O=C(COC(=O)/C=C/c1ccc2c(c1)OCO2)Nc1ccc(S(=O)(=O)N2CCCC2)cc1 | -3 | ? | 1.3 | -0.1 | -1 | 0 | 1.8 | -2% | -7 | -3
O/N=C1\CCCc2ccc(Cl)cc21 | -2 | 1.9 | -1.4 | 1.0 | -11 | -19 | -2.4 | . | 4 | -2
CCOc1ccccc1NC(=O)C1CCCN(S(=O)(=O)c2ccccc2)C1 (stereo not given) | 14 | 4.1 | -0.5 | 0.0 | -21 | -22 | -3.7 | 3% | -1 | -4
COc1cccc(OC)c1OCCNCC1CSc2ccccc2O1 (stereo not given) | 75 | 2.7 | 3.5 | 0.6 | . | . | . | . | 3 | .
CCOc1ccccc1N1CCN(CC(O)COCc2cccs2)CC1 (stereo not given) | -7 | -2.4 | 3.1 | 0.0 | 3 | 4 | 0.5 | . | 16 | -4
COc1ccc2c(C)cc3nnnn3c2c1 | 1 | -0.6 | 1.7 | 1.3 | 4 | 12 | -5.2 | . | -4 | 4
Cc1ccc(NCCC(=O)c2cccs2)cc1Cl | 19 | 5.0 | . | -0.5 | . | . | . | 12% | 12 | .
COc1ccc(C(=O)Nc2ccc(Cl)c(S(=O)(=O)Nc3ccccc3OC)c2)cc1 | 18 | 1.6 | . | -0.9 | . | . | . | 17% | 18 | -2
COc1ccc2c(c1)nc(SCC(C)O)n2C (stereo not given) | 9 | 0.0 | . | -0.5 | . | . | . | -2% | -19 | -5
Cc1cccc(N(Cc2ccccc2)C(=O)CN2C(=O)NC3(CCCC3)C2=O)c1 | . | . | 1.1 | -0.1 | . | . | . | -11% | . | 2
COCCn1c(SCC(=O)NCc2ccco2)nnc1-c1c[nH]c2ccccc12 | 2 | -0.9 | -1.1 | -0.1 | 0 | -1 | -3.9 | 2% | -8 | -3
Cc1c(Cl)cccc1NC(=O)c1cc(C2CC2)on1 | -5 | 4.9 | -3.9 | -2.3 | 1 | -4 | -2.9 | 5% | 5 | .
O=C(CNc1ccccc1)N/N=C/c1ccc2c(c1)OCCO2 | -8 | -0.3 | . | -0.6 | . | . | . | . | -2 | -14
Cc1ccccc1-c1nc(CS(=O)(=O)CC(=O)Nc2cc(F)ccc2F)c(C)o1 | -9 | 0.6 | -21 | 1.8 | -9 | -7 | 1.7 | -2% | -12 | -8
C=CCOc1ccc(CNCc2cccnc2)cc1OCC | 1 | 4.7 | -1.4 | 0.3 | 11 | 5 | 4.6 | . | 3 | -6
Cc1ccc(S(=O)(=O)NC2CCCC(C(=O)O)C2)cc1 (stereo not given) | 5 | 1.0 | . | 1.2 | . | . | . | 1% | 2 | -2
CCN(CC)c1ccc(/C=N/Nc2cccc(C)c2)c(O)c1 | -39 | ? | . | 0.4 | . | . | . | . | 7 | .
CNC(=O)c1cc2c(ccc3ccccc32)oc1=N | 2 | 36* | . | -0.6 | . | . | . | 24% | -22 | -5
CCCNc1nc(C)cc(-c2cc(C(=O)NC3CCCC3)on2)n1 | -10 | -1.7 | -1.7 | 0.2 | -3 | 5 | -2.7 | 7% | -4 | 7
COc1ccc(-c2noc(CN(C(=O)c3ccoc3C)C(C)C)n2)cc1 | 1 | 12 | -0.9 | 0.6 | -3 | -5 | 0.6 | 2% | -3 | 1

Single values from the list:
Value for `CCN(CC)c1ccc(/C=N/Nc2cccc(C)c2)c(O)c1` in Bfl-1 A1 inh: 0.4
Value for `Cc1c(Cl)cccc1NC(=O)c1cc(C2CC2)on1` in rRNA inh HTS RFP: -2.9
Value for `COc1ccc2c(C)cc3nnnn3c2c1` in T cruzi inh: -4
Value for `CCOc1ccccc1N1CCN(CC(O)COCc2cccs2)CC1` (stereo not given) in rRNA inh HTS OD600: 4

Continuation:
SMILES | Calb FLC | RanGTP-Imp inh | MLL AF4-AF9 inh | Bfl-1 A1 inh | rRNA inh HTS | rRNA inh HTS OD600 | rRNA inh HTS RFP | Vif TR-FRET | T cruzi inh | Beta apoptosis
O=C(O)CSc1nnc(NC(=O)CN2CCOCC2)s1 | 14 | -3.6 | -2.6 | 0.4 | -23 | -36 | -10 | -4% | 0 | -3
O=C1CN(C(=O)COC(=O)CCC(=O)c2ccc(F)cc2)c2ccccc2N1 | . | . | -3.7 | 0.6 | 1 | 1 | -2.3 | . | . | 2
O=C(Cn1cnc2cc([N+](=O)[O-])ccc2c1=O)NCc1ccc(Cl)cc1 | 43 | -5.7 | -3.9 | 0.3 | 11 | 13 | 1.9 | . | 52 | -10
Cc1ccc(C(=O)OCC(=O)c2c(N)n(C)c(=O)n(C)c2=O)cc1S(=O)(=O)N1CCCCC1 | -2 | ? | . | 0.4 | . | . | . | 15% | 0 | 0
CN(Cc1nc2ccccc2[nH]1)C(=O)C1CCC(=O)N(C2CCCC2)C1 (stereo not given) | -1 | -5.3 | -2.1 | -0.2 | 10 | -3 | 4.9 | . | -19 | -3
O=C(CSc1nc(NS(=O)(=O)c2ccccc2)cc(=O)[nH]1)Nc1ccc(F)cc1 | 7 | 4.3 | . | 0.5 | . | . | . | 2% | -9 | .
Cc1ccc(-c2ccc(/C=N/n3cnnc3)o2)cc1 | 3 | -1.1 | 5.9 | -0.3 | -2 | 2 | -0.2 | 27% | -24 | 1
O=C(COC(=O)C1(c2ccc(Cl)cc2)CCCC1)N1CCc2ccccc21 | -3 | 2.7 | 4.9 | -0.3 | -4 | -13 | -0.2 | . | 42 | 6
O=C1c2ccccc2NC(c2cccc([N+](=O)[O-])c2)N1CCc1ccccc1 (stereo not given) | -4 | 4.8 | 11 | 0.4 | -20* | -14* | 3.4* | . | 19 | 11
Cc1c(NC(=O)/C(C#N)=C\c2cccs2)c(=O)n(-c2ccccc2)n1C | -8 | 4.9 | . | 0.1 | . | . | . | 10% | -34 | -4
CC1CCCN(c2ccc(/C=C(\C#N)c3nn(-c4ccccc4)c(N)c3C#N)cc2[N+](=O)[O-])C1 (stereo not given) | -7 | -1.9 | . | 0.2 | . | . | . | -8% | 51 | 22
O=C(COc1cc2oc(=O)cc(-c3ccccc3)c2cc1Cl)NCc1ccccn1 | 12 | 1.5 | -1.0 | -1.7 | 0 | -4 | -3.1 | . | 17 | -3
O=C(c1ccccc1)N(Cc1ccccc1)Cc1ccccc1 | -8 | 0.8 | -5.3 | 1.7 | -31 | -31 | -15 | . | -2 | -5
COc1cccc(Nc2nc3ccccc3n2C(C)C)c1 | 42 | 0.1 | . | 0.3 | . | . | . | -3% | 17 | .

Not all compounds are listed, so the mix of outcomes need not match the whole.
